Screening data as filed in PubChem BioAssay.
Rango complex inh: inhibitors of Rango-importin beta complex formation | actives 0.031% (n = 340,000) | AID 540263 | Q14974 | Potency, µM (doses to about 92.2 µM), without a hit: at the highest dose inhibition of complex formation | Rango CFP/YFP FRET sensor + importin beta, 45 min; active = rising FRET ratio curve, often small or poorly fitted; inconclusive = mostly compound fluorescence or quenching in the first reads; inactive = flat curves in all reads;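 note: potency is the fitted concentration of half-maximal effect; 0% = DMSO wells and 100% = buffer wells lacking importin beta; nearly all actives have a fitted effect of over 15% in size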
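FRET biosensor Rango (snurportin 1 IBB between N-terminal EYFP and C-terminal Cerulean), 50 nM in PBS/1 mM DTT/0.02% Tween-20/0.1% BSA, preincubated 5 min RT with compound; 0.125 microM importin beta added, 45 min RT, CFP/YFP FRET ratio read.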
Rango dissoc inh: prevents RanGTP from dissociating the Rango-importin beta complex; O95149+P62826; Biochemical FRET Rango-importin beta, RanGTP-induced dissociation; Potency, µM (doses to about 46.1 µM), without a hit: at the top dose activity change, negative = inhibition; actives 0.071% (n = 340,000); AID 540253; active means falling FRET ratio curve, often poorly fitted, with flat reads before Ran was added; inconclusive means other falling curves, or compound fluorescence or quenching; inactive means flat or rising ratio curve;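 note: potency is the fitted concentration of half-maximal effect; % of control where 0% means no effect; nearly all actives have a fitted effect of over 45% in size; -100% = wells without RanGTP and RCC1; the record marks most hits as doubtful in a second field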
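FRET read at 45 min, room temperature: inhibitors block the CFP/YFP signal rise when RanGTP (0.6 uM Ran, 2 mM GTP, 0.2 uM RCC1) frees Rango (0.1 uM) from importin beta (0.25 uM). Pre-read after 5 min compound exposure flags interference.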
miR-21 reporter: miR-21 reporter, rising signal. HeLa miR-21 FLuc reporter, luciferase, 48 h. Potency, µM (top dose mostly 38.3 µM), inactives show at the top dose reporter change, positive = more light. 340,000 tested, under 10 active. AID 2288; active = well fitted rising curve with a large enough effect; inconclusive = small, poorly fitted or top-dose-only effect; inactive = no such curve, though single readings can be large or run the other way;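 note: % of control where 0% means no effect; miR-21 action dims this reporter so a rising signal means less miR-21 action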
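Compounds were titrated across several concentrations (up to approximately 40 uM) and incubated 48 hours with HeLa miR-21-FLuc reporter cells (miR-21 target sequence downstream of FLuc, endogenous miR-21). Readout was firefly luciferase luminescence after lytic detection reagent.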
GLA inh pH 4.5: blocks human alpha-galactosidase A at pH 4.5; 230,000 tested, under 10 active; purified enzyme, 4-MU-alpha-Gal fluorescence, pH 4.5; activity change, negative = inhibition, % at 105 µM; AID 1467; P06280; inconclusive = small, poorly fitted or top-dose-only inhibition, or a rising curve; inactive = flat fitted curve, though single readings scatter; no compound was filed as active;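 note: 0% = full activity with enzyme and -100% = basal without enzyme; dose as in the result columns while the protocol names 77 µM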
Target sequence (P06280 whole entry, looked up): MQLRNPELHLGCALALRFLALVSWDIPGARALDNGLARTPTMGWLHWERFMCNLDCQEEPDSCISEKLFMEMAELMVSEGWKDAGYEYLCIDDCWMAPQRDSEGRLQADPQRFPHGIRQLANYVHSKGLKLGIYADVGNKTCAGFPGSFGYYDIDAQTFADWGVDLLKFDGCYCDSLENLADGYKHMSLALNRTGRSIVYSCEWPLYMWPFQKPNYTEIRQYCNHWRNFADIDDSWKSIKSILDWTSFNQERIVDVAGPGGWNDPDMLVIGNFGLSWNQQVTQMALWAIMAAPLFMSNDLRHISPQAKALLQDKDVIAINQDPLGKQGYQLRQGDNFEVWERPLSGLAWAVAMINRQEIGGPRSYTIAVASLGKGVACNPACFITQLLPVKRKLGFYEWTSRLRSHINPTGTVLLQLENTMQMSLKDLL
* hit, by the source's call; ? = inconclusive; . = not tested or not shown; & = joins results of further samples. This is a subset; count on the stated rates, not on these rows.

SMILES	Rango complex inh	Rango dissoc inh	miR-21 reporter	GLA inh pH 4.5
C=CCSc1nc(N)c2c3c(sc2n1)CN(C)CC3	?	?	-24%	.
O=C(O)c1ccc(Oc2ccc(C(F)(F)F)cn2)cc1	-1.0%	0%	-10%	2
CCCCSc1cc(=O)[nH]c(N)n1	1.3%	-2%	-2%	-5
O=C(CNC(=S)N(Cc1ccccc1F)C1CCCCC1)NC1CC1	?	9%	0%	-1
COC(=O)c1ccc2nc(Nc3nc4c(F)cc(F)cc4s3)sc2c1	?	?	?	?
CCOC(=O)c1ccc(NC(=O)CSc2ccc(-c3ccccn3)nn2)cc1	-3.9%	4%	11%&-3%	.
CCOc1ccc(NC(=O)CN(C)C(=O)c2cccc(S(=O)(=O)N3CCCC3)c2)cc1OCC	-2.7%	6%	.	.
CCc1nccn1S(=O)(=O)c1ccc(OC)c(C)c1C	?	14%	-9%	3
COC(=O)c1nn(-c2ccccc2)c(Cl)c1/C=N/O	-2.8%	1%	-4%	3
COC(=O)c1ccc(S(=O)(=O)N(C2CCCCC2)C2CCCCC2)n1C	0.0%	0%	-3%	-6
CC(=O)Nc1ccc(NC(=O)Cn2cc3c(n2)CCCC3)cc1	-0.3%	1%	-5%	-5
CCC(C)NC(=O)C1CC(=O)N(CCc2ccc(F)cc2)C1 (stereo not given)	0.0%	-9%	2%	.
CCOc1ccc(CCNC(=O)COC(=O)Cc2ccc(OC)c(OC)c2)cc1OCC	-1.3%	-12%	.	.
NC1=NC(c2ccc(Br)cc2)n2c(nc3ccccc32)N1 (stereo not given)	0.0%&-1.5%	11%&0%	-6%	-1
COc1c(CC=C(C)C)cc(C2CC(=O)c3c(O)cc(O)cc3O2)cc1CC=C(C)C (stereo not given)	-0.1%	-12%	-11%	-12
COc1ccc(C2CC(=O)Oc3c(C(CCN4CCCCC4)c4ccc(N(C)C)cc4)c(OC)cc(OC)c32)cc1 (stereo not given)	3.7%	-7%	-6%	-5
COc1ccc(Cl)cc1NC(=O)C1CSC(c2ccncc2)=N1 (stereo not given)	4.8%	-5%	-10%	7
CC(=O)Nc1ccc(C(=O)/C=C/c2ccco2)cc1	?	-15%	-7%	-8
O=C(O)CN1C(=O)COc2cc(S(=O)(=O)N3CCCC3)ccc21	0.6%	6%	-1%	0
C/C(=N\NC(=O)c1cccnc1)c1ccc(C)c([N+](=O)[O-])c1	0.6%	3%	-1%	10
Cc1ccc(NC(=S)NC(=O)C2CCC2)cc1C	2.0%	1%	-51%	.
COc1cccc(CC2(CO)CCN(Cc3cn(C)nc3C)CC2)c1	-4.1%	-1%	-2%	5
CCOc1ccccc1-c1nc(-c2ccc(NC(=O)c3ccc(Br)o3)cc2)no1	-1.5%	6%	-9%	-8
COc1cc(NC(=O)CN2CCN(S(=O)(=O)c3ccc(C(C)C)cc3)CC2)cc(OC)c1	3.7%	9%	11%	-14
N#Cc1ncc(-c2ccc3c(c2)OCCOCCOCCOCCOCCO3)nc1C#N	-3.4%	1%	?	-10

Shown with each value named: part of the list above
CC(=O)Nc1ccc(NC(=O)Cn2cc3c(n2)CCCC3)cc1
  Rango complex inh: -0.3% | Rango dissoc inh: 1% | miR-21 reporter: -5% | GLA inh pH 4.5: -5
O=C(CNC(=S)N(Cc1ccccc1F)C1CCCCC1)NC1CC1
  Rango complex inh: ? | Rango dissoc inh: 9% | miR-21 reporter: 0% | GLA inh pH 4.5: -1

Going on with the list:
SMILES	Rango complex inh	Rango dissoc inh	miR-21 reporter	GLA inh pH 4.5
CC(=O)Nc1ccc(NC(=O)CC2(CC(=O)N3CCOCC3)CCCC2)cc1	-4.5%	?	.	.
COc1cc(C2OC(=O)c3ccccc3S2)cc(OC)c1OC (stereo not given)	-5.7%	-5%	-2%	-10
O=C(COc1ccc(Cl)cc1)NC1=NN(c2ccccc2)C(=O)C1	3.3%	-10%	-4%	2
CC(C)(C)Nc1nc(Nc2ccc([N+](=O)[O-])cc2)nc(NC(C)(C)C)n1	-0.1%	?	1%	.
Cc1ccc(NC(=O)CCc2ccc(C)o2)c(Br)c1	0.9%	-22%	-30%	.
CC(C)CN1CC(C(=O)O)CC1=O (stereo not given)	-5.2%	-13%	-1%	.
COC(=O)/C=C1/S/C(=N/NC(=O)c2ccccc2C)NC1=O	-4.2%	-6%	-6%	4
COc1ccc(CCN2C(=O)CC(Nc3ccc(N4CCOCC4)cc3)C2=O)cc1OC (stereo not given)	3.6%	-1%	-15%	8
COc1ccccc1N(CC(=O)NCCc1ccccc1)C(=O)CCC(=O)Nc1nccs1	4.5%	9%	-1%	.
O=C1C2=C(c3ccccc31)[N+](=O)[C@@H]1CCCC[C@@H]1N2[O-]	1.8%	-13%	-31%	2
COCCN(C(=O)Cc1cccs1)C(C(=O)NCc1ccc(OC)cc1)c1ccc(C(C)C)cc1 (stereo not given)	?	1%	22%	-11
Cc1cccc(OCC(=O)NCC(=O)N=Nc2c(O)[nH]c3ccc([N+](=O)[O-])cc23)c1	-0.1%	1%	0%	.
COc1ccccc1CN(Cc1ccco1)S(=O)(=O)c1ccc(-n2cnnn2)c(OC)c1	-4.8%	21%	-4%	-22
c1ccc(Cn2nnc3c(NCC4CCCO4)nc(C4CC4)nc32)cc1 (stereo not given)	-2.3%	8%	-1%	-3
O=C(c1cc2nc(-c3ccccc3)cc(C(F)(F)F)n2n1)N1CCOCC1	?	8%	-2%	-4
Cc1nc(-c2ccccc2)sc1-c1nc(-c2cccs2)ncc1S(=O)(=O)c1ccccc1	.	.	-3%	0
O=C(CCN1C(=O)c2ccccc2S1(=O)=O)NCc1ccc(F)cc1	-1.1%	-6%	.	.
COc1ccc(C(CC(=O)O)n2cnnn2)cc1 (stereo not given)	3.1%	0%	-1%	2
C/C=C(\C)C(=O)OC1c2c(ccc3ccc(=O)oc23)OC(C)(C)C1OC(C)=O (stereo not given)	5.9%	-1%	-8%	?
Cc1ccc(SCCc2cc[n+](CC(=O)c3ccccc3)cc2)cc1	?	-18%	-45%	4
O=C(Nc1ccc(Br)cc1)c1cccc(NC(=O)C2C3CC4OC(=O)C2C4C3)c1 (stereo not given)	-3.8%	-8%	-7%	-12
Cc1nnc(SCC(=O)N2c3ccccc3CC2C)[nH]c1=O (stereo not given)	-0.6%	-4%	0%	1
COC(=O)c1ccc(NC(=O)CN(C2CCCCC2)S(C)(=O)=O)cc1	-0.2%	17%	12%	-8
Cc1nnc(NC(=O)CSc2nnc(Cc3cccn3C)n2-c2cccc(C)c2C)s1	.	.	-4%	2
Cc1ccc(-n2nc(N)c3c(=O)oc(N(C)C)nc32)cc1	-3.1%	-7%	-1%	6

Additional structures.
SMILES	Rango complex inh	Rango dissoc inh	miR-21 reporter	GLA inh pH 4.5
Cc1nc(SCCO)c2oc3ccccc3c2n1	-3.1%	-13%	0%	3
CCCn1c(=O)c(C(=O)c2ccccc2)nc2ccccc21	3.7%	12%	-5%	-13
CC1(c2nnc(Cc3ccccc3)o2)CC(c2ccc(OC(F)(F)F)cc2)=NO1 (stereo not given)	-1.8%	2%	.	.
COc1ccc(N(CC(=O)Nc2ccccc2C(=O)N2CCCC2)S(C)(=O)=O)cc1	-3.1%	-15%	5%	.
COc1ccc(-c2cc(=O)[nH]c(=S)[nH]2)cc1	1.8%	0%	0%	8
COc1ccc(Nc2nc(C(=O)N3CCc4ccccc4C3)cs2)cc1	-2.1%	9%	-9%	-6
CN(Cc1ccccc1)C(=O)COC(=O)c1ccc(Cl)cc1N	-4.2%	-2%	-29%	-1
CC(NC(=O)c1ccco1)C(=O)O (stereo not given)	-4.9%	8%	.	.
CCCCC(=O)Nc1ccc(Cl)cn1	2.1%	13%	-20%	5
Cc1ccc(C)c(C(=O)COc2ccc(C)nc2[N+](=O)[O-])c1	?	-27%	18%	-8
Cc1nc(/C(=N/O)C(N)=O)cs1	1.0%	33%	1%	-4
CCCCn1c(N)c(N(CCOC)C(=O)COc2c(C)cccc2C)c(=O)[nH]c1=O	0.0%	-3%	.	.
CCn1c(CC(=O)Nc2ccc(Cl)cc2)nnc1SCC(=O)N1CCOCC1	0.1%	1%	-4%	.
CCSc1nnc(NC(=O)Cc2ccc(OC)c(S(=O)(=O)N3CCOCC3)c2)s1	0.9%	-10%	1%	-5
COc1ccc(OCC(=O)N/N=C/C2CC=CCC2)cc1 (stereo not given)	?	11%	-5%	-21
O=C1CCCc2nc(N3CCCCC3)sc21	-0.3%	-14%	-36%	3
N#C/C(=C/C=C/c1ccccc1)C(=O)Nc1ccccc1	-0.2%	-2%	-6%	0
Cc1ccc(CSc2ccc(C(=O)N3CCOCC3)cc2[N+](=O)[O-])cc1	0.0%	-10%	-1%	-3
N/C(=N\OC(=O)c1cc(-c2ccccc2)nc2ccccc12)c1ccncc1	0.4%	-7%	0%	9
COc1ccccc1CN1CC(C(=O)NCCCc2ccc(F)cc2)CCC1=O (stereo not given)	-4.4%	0%	9%	.
Cn1c(C(=O)N2COCC2(C)C)cc2c(=O)n3ccccc3nc21	?	?	-49%	?
Cc1cccc2sc(NC(=O)C3=NN(c4ccccc4)C(=O)CC3)nc12	0.5%	-10%	-5%	-9
COCCn1c(=O)[nH]c2cc(C(=O)OC)ccc2c1=O	-0.4%	-16%	2%	19
C=CCN(C(=O)Cn1nc(C)n2c(cc3cc(C)ccc32)c1=O)c1ccccc1	0.3%	3%	3%	.
COc1ccc(/C=N/NC(=O)c2cccnc2)c(C(=O)O)c1OC	-1.7%	1%	-5%	-3

(more compounds)
SMILES	Rango complex inh	Rango dissoc inh	miR-21 reporter	GLA inh pH 4.5
CCOC(=O)c1cc(C#N)c(SC)nc1C	-0.6%	-7%	2%	-2
O=C(/C=C/Nc1ccc(F)cc1)c1ccco1	?	?	-55%	-4
CCOc1c(Cl)cc(CNCC(C)C)cc1OC	-0.5%	-10%	-2%	5
CCN(CC(=O)Nc1cc(Cl)ccc1C)C(=O)c1cc([N+](=O)[O-])ccc1N1CCOCC1	-3.6%	9%	.	.
COc1ccccc1CC(=O)Nc1ccc(-c2nnc(-c3ccco3)o2)cc1	0.9%	-3%	-18%	-3
Cc1sc2nc(-c3ccco3)oc(=O)c2c1C	?	?	-4%	-10
Cc1cc(O)c(-c2cc(C(=O)Nc3ccc(S(=O)(=O)N4CCOCC4)cc3)[nH]n2)cc1C	3.7%	13%	?	-8
CCc1ccc(N(C(=O)c2csnn2)C(C(=O)NC2CCCCC2)c2cccnc2)cc1 (stereo not given)	-1.5%	-2%	-11%	.
Cc1ccc(F)cc1NC(=O)CSc1nnc(CNC(=O)c2ccco2)n1C	1.7%	?	.	.
Cc1cc(C)cc(N(CC(=O)NCc2ccco2)C(=O)CCC(=O)Nc2ccccn2)c1	-3.2%	?	-7%	-6
CC1(C)Oc2ccc(C(=O)NC3CCCC3)cc2N(CC(=O)NC2CCCCC2)C1=O	-5.6%	-13%	-1%	5
O=C(Nc1cc(S(=O)(=O)N2CCCC2)ccc1OCC(F)(F)F)c1ccc(F)cc1	0.8%	3%	-2%	-3
COc1ccccc1NC(=O)N1CCN(C)CC1	0.0%	0%	-1%	0
C=CCOc1ccccc1/C=N/NC(=O)Cc1ccc(C)cc1	5.1%	?	7%	.
COc1cc(C(CCN2CCOCC2)c2c(OC)cc(OC)c3c(-c4ccccc4)cc(=O)oc23)cc(OC)c1OC (stereo not given)	-4.2%	6%	.	-25
CCCc1nnc(SCC(=O)Nc2cccc(Cl)c2Cl)o1	-3.4%	-16%	-14%	.
CCOC(=O)[C@H]1[C@H]2COc3ccc(Cl)cc3[C@@H]2N2C(=O)CNC(=O)[C@@]12C	-0.8%	1%	.	.
O=C(CN(C(=O)CCC(=O)Nc1nccs1)C1CCCC1)NCc1ccc2c(c1)OCO2	-1.2%	-14%	0%	-2
CCn1c(=O)n(CC)c2cc([N+](=O)[O-])ccc21	-0.5%	3%	-17%	3
Cc1c(C(=O)NCCCN2CCCC2=O)oc2ccccc12	?	-11%	-37%	-3
